# N370S GC mod: N370S glucocerebrosidase modulation, Gaucher chaperone candidate. Potency, µM (titrated, usually from 59.4 µM), without a hit: at the top dose activity change, negative = inhibition, hits mostly inhibitors. N370S GC spleen homogenate, 4MU-glucoside fluorescence. hit rate 0.092% among 330,000;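 further: 0% = full enzyme activity and -100% = no enzyme basal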
# GCN5L2 inh: blocks human GCN5L2 histone acetyltransferase; GCN5L2 HAT assay, ThioGlo1 CoA-SH fluorescence; Q92830; hit rate 0.21% among 390,000; Potency, µM (series often up to 58.9 µM), without a hit: at the highest dose activity change, negative = inhibition, usual class: inhibitors
# Target sequence (Q92830 whole entry, looked up): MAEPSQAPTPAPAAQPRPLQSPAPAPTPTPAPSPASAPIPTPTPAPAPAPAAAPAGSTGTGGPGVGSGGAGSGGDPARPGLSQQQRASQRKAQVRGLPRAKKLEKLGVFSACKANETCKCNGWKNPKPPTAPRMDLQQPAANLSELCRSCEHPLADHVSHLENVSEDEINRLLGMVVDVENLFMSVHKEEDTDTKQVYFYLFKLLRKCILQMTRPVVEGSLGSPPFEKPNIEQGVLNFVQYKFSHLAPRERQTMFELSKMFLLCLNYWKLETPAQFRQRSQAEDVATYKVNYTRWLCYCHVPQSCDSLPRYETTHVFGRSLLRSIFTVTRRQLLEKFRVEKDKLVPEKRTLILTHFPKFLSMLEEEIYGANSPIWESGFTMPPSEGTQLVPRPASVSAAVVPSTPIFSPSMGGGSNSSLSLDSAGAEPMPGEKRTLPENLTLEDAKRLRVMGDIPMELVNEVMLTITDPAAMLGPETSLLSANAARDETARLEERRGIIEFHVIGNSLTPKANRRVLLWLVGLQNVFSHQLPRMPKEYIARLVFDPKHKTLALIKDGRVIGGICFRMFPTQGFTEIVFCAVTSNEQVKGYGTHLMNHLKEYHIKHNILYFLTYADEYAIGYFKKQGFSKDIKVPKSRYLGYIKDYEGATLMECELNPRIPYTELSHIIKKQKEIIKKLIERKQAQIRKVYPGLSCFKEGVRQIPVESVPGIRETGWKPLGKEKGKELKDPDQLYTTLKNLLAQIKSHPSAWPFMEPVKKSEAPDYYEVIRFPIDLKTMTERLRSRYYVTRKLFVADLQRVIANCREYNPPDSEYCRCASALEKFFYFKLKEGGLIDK
#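 GCN5L2 (20nM final) in 50mM HEPES, 0.1mM EDTA pH 7.5, 0.01% Tween-20 was preincubated 15 min at room temperature with compound, then given ThioGlo1 (50uM), H3(1-25) peptide (75uM) and acetyl-CoA (70uM); CoA-thiol fluorescence (Ex340/Em540) was read at 0 and 20 min.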
# Numbers without * were called inactive; ? = inconclusive; · = no result given; [ ] = dose if it differs, or a comment. The call rests on the fitted dose curve; in most records, active means well fitted curve in the direction sought with a large enough effect; inconclusive means small, poorly fitted or top-dose-only effect, or another doubt; inactive means no such curve, though single readings can be large; an effect the other way counts as inactive or inconclusive. Unless noted, on the % scale 0 is the no-effect control and ±100 the full control effect; potency means the concentration at half of the fitted maximal effect. Not all compounds are listed; most or all hits stand in other tables.
N370S GC mod | GCN5L2 inh | canonical_smiles
-1% | -3% | CCc1cccc(NC(=O)CCNC(=O)Cn2ccc3ccccc3c2=O)c1
-8% | -9% | Cc1c(C=N)c(O)n(C)c(=O)c1C#N
-13% | -4% | COc1cc(CN2CCNC(=O)C2CC(=O)NCCCC2CCCC2)cc(OC)c1 (stereo not given)
· | -4% | COc1ccc(N2CC(c3nc(-c4cc(OC)c(OC)c(OC)c4)no3)CC2=O)cc1Cl (stereo not given)
-20% | -5% | Cc1ccc(Nc2nc(CSc3nnnn3C)cs2)cc1
-2% | -2% | CS(=O)(=O)c1ccc(C(=O)Nc2ccccc2Cl)cc1
-2%[21.6 µM] | 5%[21.4 µM] | C[C@@H]1C[C@H]2[C@@H]3C[C@H](F)C4=CC(=O)C=C[C@@]4(C)[C@]3(F)[C@H](O)C[C@]2(C)[C@@]1(O)C(=O)CO
-4% | ? | N#CCC(=O)N/N=C/c1cn(Cc2ccc(Cl)cc2Cl)c2ccccc12
5% | -8% | COc1ccc(CCn2c(C)cc(C(=O)CSc3nnnn3C)c2C)cc1
· | -14% | COC(=O)c1ccc(NC(=O)CSc2nc(C)cc(C)c2C(=O)Nc2ccccc2)cc1
· | -3% | COc1ccc(S(=O)(=O)N(C)Cc2ccc3c(c2)OCCO3)cc1
2% | 2% | O=C(NCCCn1ccnc1)/C(=C\c1ccccc1F)NC(=O)c1ccccc1
0% | -4% | COc1ccc(-c2nc(CN3CCC(C(=O)N4CCOCC4)CC3)c(C)o2)cc1OC
-3% | · | O=C(c1cnsn1)N1CCN(c2ccccc2)CC1
21% | -4% | Cc1ccc(-n2c(C)nc3c(cnn3-c3ccc(C)c(C)c3)c2=O)cc1C
-7% | 0% | CC(=O)Nc1cccc(NC(=O)c2cc(Cl)ccc2Cl)c1
· | 2% | COc1ccccc1NC(=O)CCS(=O)(=O)c1cc2c3c(c1)CCN3C(=O)CC2
· | -1% | O=C(Nc1cccc(S(=O)(=O)N2CCCC2)c1)c1cncc(Br)c1
5% | -8% | Cn1c(N)c(C(=O)c2cc(-c3ccccn3)nc3ccccc23)c(=O)[nH]c1=O
-1% | ? | COc1ccccc1OC(C)C(=O)N(Cc1ccco1)C1CCS(=O)(=O)C1 (stereo not given)

# Complete entries from above:
# Cc1ccc(Nc2nc(CSc3nnnn3C)cs2)cc1 reads N370S GC mod: -20%; GCN5L2 inh: -5%
# COc1ccc(CCn2c(C)cc(C(=O)CSc3nnnn3C)c2C)cc1 reads N370S GC mod: 5%; GCN5L2 inh: -8%
# O=C(Nc1cccc(S(=O)(=O)N2CCCC2)c1)c1cncc(Br)c1 reads N370S GC mod: ·; GCN5L2 inh: -1%

# Looked up one by one from the list above (two):
N370S GC mod | GCN5L2 inh | canonical_smiles
21% | -4% | Cc1ccc(-n2c(C)nc3c(cnn3-c3ccc(C)c(C)c3)c2=O)cc1C
5% | -8% | Cn1c(N)c(C(=O)c2cc(-c3ccccn3)nc3ccccc23)c(=O)[nH]c1=O

# Further entries:
N370S GC mod | GCN5L2 inh | canonical_smiles
· | 0% | Cc1ccsc1C(=O)OCC(=O)NC1CC1
-3% | -5% | COc1ccc(C(=O)Cn2c(Br)nc3c2c(=O)n(C)c(=O)n3C)cc1
13% | -5% | N#Cc1ccc(OCc2nnc3n2CCCCC3)cc1
-2% | ? | COc1cc(/C=N/NC(=O)CSc2ccccn2)ccc1OC(C)C
11% | 2% | Oc1ccc(Cl)cc1C1=NNC(c2ccc(Cl)cc2)C1 (stereo not given)
4% | -3% | CCN(CC)C(=O)C1c2ccccc2Oc2ccccc21
5% | -14% | CCOn1c(=O)c[n+]([O-])c2ccccc21
-9% | -5% | O=C(NCCCN1CCCC1)c1ccc2c(c1)N(Cc1ccc(F)cc1)C(=O)c1ccccc1S2=O (stereo not given)
3% | -4% | CC(CCOS(N)(=O)=O)c1ccccc1 (stereo not given)
-2% | -5% | CC1CCCCC1NC(=O)CN1C(=O)CSc2cc(S(=O)(=O)N3CCCCCC3)ccc21 (stereo not given)
-2% | 2% | O=C(/C=C/c1ccco1)NC(=S)Nc1ccc(N2CCCC2)cc1
4% | -1% | COc1ccc(C(=O)OCC(=O)N2CCCC2=O)c(OC)c1
6% | 1% | CC1CCC/C(=N\NC(=S)NCc2ccccc2)C1 (stereo not given)
· | -18% | COc1cc(-c2noc(-c3ccc(N4CCOCC4)c([N+](=O)[O-])c3)n2)cc(OC)c1OC
· | -5% | COc1ccc(S(=O)(=O)NC(CC(C)C)C(=O)NC(C)c2cccs2)cc1 (stereo not given)
-24% | 2% | C(=N\N1CCN(Cc2cccc3ccccc23)CC1)/c1cccnc1
0% | 1% | COc1ccc(C(=O)NCCS(=O)(=O)NCc2cccnc2)cc1
-4% | -3% | COc1cc(/C=N/Nc2nc(C)cc(C)n2)ccc1OC(=O)c1ccco1
-12% | -7% | NC(=O)Cn1cc(/C=N\NS(=O)(=O)c2ccc(Cl)cc2)c2ccccc21
0% | 22% | CCc1ccc(NC(=O)C(C)OC(=O)c2ccc(N3CCCC3)c([N+](=O)[O-])c2)cc1 (stereo not given)
-2% | -1% | COc1cccc(-c2nnc(SCC(=O)OC(C)C)n2Cc2ccco2)c1
-7% | 0% | O=C(O)CCCC(=O)Nc1ccn(-c2ccccc2)n1
-1% | -6% | Cc1c(Cl)cccc1NC(=O)c1ncn[nH]1
· | 4% | Cc1cc(C(=O)OC(C)C(=O)NC2CCCCC2)c(C)o1 (stereo not given)
5% | 0% | CCn1c(SCc2nc3cc(OC)c(OC)cc3c(=O)[nH]2)nc2ccccc21
-4% | -5% | O=[N+]([O-])c1ccc(S(=O)(=O)Nc2ccc(S(=O)(=O)N3CCCC3)cc2)cc1
-3% | -22% | O=C(NCC(c1ccco1)N1CCc2ccccc21)c1cccc([N+](=O)[O-])c1 (stereo not given)
· | -19% | CCN1C(=O)c2cccc3c(S(=O)(=O)N4CCC(C)CC4)ccc1c23
2% | ? | Cc1cccc(NC(=O)CCN2C(=O)C3C4CCC(C4)C3C2=O)c1C (stereo not given)
9% | -7% | O=C(CNC1CCCCC1)NCC1(c2ccccc2)CCCC1
-15% | -6% | COC(=O)[C@@H](NCc1cccc(CN([C@H](C(=O)OC)C(C)C)S(C)(=O)=O)c1)C(C)C
· | -2% | COc1ccc(Cn2c(=O)c3ccccc3n3c(-c4cccc(OC)c4OC)nnc23)cc1
13% | -1% | COc1ccccc1CNC(=O)[C@@H]1CCCN1C(=O)[C@@H]1Cc2ccccc2CN1C(=O)OC(C)(C)C
7% | 15% | CCC(C(=O)N1CCN(c2ncccn2)CC1)c1ccccc1 (stereo not given)
· | -7% | O=C(Nc1ccc(F)c(S(=O)(=O)N2CCOCC2)c1)C1CCCCC1
11% | -4% | COC(=O)c1cccc(S(=O)(=O)N2CCCC2)c1
-1% | -10% | CN(CC(=O)Nc1cccc(C#N)c1)Cc1ccc(Cl)cc1
4% | -2% | CC(C)n1c(SCC(=O)N2c3ccccc3Sc3ccccc32)nc2c1c(=O)n(C)c(=O)n2C
1% | -2% | Cc1ccc(-n2c(C)cc(C(=O)CSc3n[nH]c(N)n3)c2C)cc1
2% | -1% | FC(F)Sc1ccc(NC2=NCCCCC2)cc1
-7% | 3% | CN(C)Cc1n[nH]c(=O)c2ccccc12
-23% | -3% | COc1ccc(/C=C(/C#N)C(=O)Nc2cc(C)ccc2C)cc1C(=O)O
0% | -2% | Cc1ccc(C(=O)CC2SC(N)=NC2=O)cc1 (stereo not given)
-1% | 1% | C=CCNC(=S)NNC(=O)CCC(O)COCCC(C)C (stereo not given)
1% | -4% | CC(=O)NCCC(=O)Nc1cc(S(=O)(=O)N2CCCCC2)ccc1N1CCN(C)CC1
· | -1% | COc1cc(OC)cc(-n2c(=O)c3sccc3n(Cc3cc(=O)n4c(C)cccc4n3)c2=O)c1
· | -7% | CCN(CC)S(=O)(=O)c1ccc2c(c1)nc(CN(C)C(=O)Nc1cccc(Cl)c1)n2C
-20% | -10% | Cc1onc(-c2ccccc2Cl)c1C(=O)N1CCN(S(=O)(=O)c2ccc(F)c(F)c2)CC1
5% | -10% | CCC(=NCc1ccc(Cl)c(Cl)c1)c1nc(-c2ccco2)oc1O
-2% | 1% | O=C1COc2ccc(C(=O)/C=C/c3ccccc3)cc2N1
5% | ? | Cc1ccc(/C=C/C(=O)c2c(C)nc3ccccn23)cc1
4% | -25% | COc1ccc(NC(=O)C2CCOC(C)(C)C2)cc1 (stereo not given)
-20% | 2% | Cc1ccc(C)c(Nc2c([N+](=O)[O-])cc(C(=O)N3CC(=O)Nc4ccccc43)cc2[N+](=O)[O-])c1
4% | 2% | C/C(CC(=O)Nc1ccc(Cl)cc1)=N\NC(=O)C(=O)NCCO
-11% | 1% | CS(=O)(=O)N1CCN(CC2CC3C=CC2C3)CC1 (stereo not given)
15% | -11% | COc1ccccc1NC(=O)N1CCc2c([nH]c3ccccc23)C1C(F)(F)F (stereo not given)
· | -15% | COc1ccc(N(Cc2cccs2)C(=O)Nc2ccccc2)cc1
-1% | -4% | O=C(CNC(=O)c1ccncc1)N/N=C/c1ccccn1
-15% | -3% | C=CCn1c(SCC(=O)NC2CCS(=O)(=O)C2)nnc1-c1ccc(Cl)cc1 (stereo not given)
-15% | -1% | O=c1nc2ccccc2c2n1CC(CN1CCN(c3cccc(Cl)c3)CC1)N2 (stereo not given)

# More compounds
N370S GC mod | GCN5L2 inh | canonical_smiles
? | ? | COC(=O)C1=C(C)NC(C)=C(C(=O)OCCN(C)Cc2ccccc2)C1c1cccc([N+](=O)[O-])c1 (stereo not given)
0% | 1% | CCOc1ccc(CCNC(=O)C2CCCN(S(=O)(=O)c3c(C)n[nH]c3C)C2)cc1OCC (stereo not given)
19% | 1% | O=C(CCCc1cccs1)Nc1nc2c(s1)CCCC2
12% | -8% | Cc1n[nH]c(C)c1N1C(=O)c2cccc3c(Br)ccc(c23)C1=O
· | -16% | Cc1ccc(NS(=O)(=O)c2ccc3nc(-c4ccccc4)[nH]c3c2)cc1Cl
-10% | -1% | Cc1ccc(-c2ccc(SCC(=O)NC3CCCCC3)nn2)cc1
-23% | -1% | O=C(NC1(Cc2ccc(O)cc2)CCCCC1)c1ccccc1
-7% | 1% | CCOC(=O)NC(N(O)c1cccc(Cl)c1)C(Cl)(Cl)Cl (stereo not given)
2% | -2% | COc1ccc(NC2CCCN(C(=O)c3ccc(OC)cc3OC)C2)cc1 (stereo not given)
8% | -19% | CN1CCN(C(=O)c2ccccc2NC(=O)c2cccs2)CC1
-13% | -25% | CCn1nc(NS(=O)(=O)c2cccc3nonc23)c2cc3ccc(C)cc3nc21
4% | -7% | CC1CCOC2(O1)C(=O)N(CN1CCN(c3cccc(Cl)c3)CC1)c1ccccc12 (stereo not given)
-22% | -9% | C=CCn1c(C)cc(C(=O)COC(=O)C2CC(=O)N(CCc3ccc(OC)c(OC)c3)C2)c1C (stereo not given)
-1% | -2% | CC(=O)c1c(O)cc(=O)n(-c2ccccc2)c1-c1cccc2ccccc12
19% | -16% | CCOC(=O)c1c(-c2cccs2)csc1NC(=O)CSc1ncn[nH]1
16% | ? | CCOc1ccccc1N(CC(=O)Nc1ccccc1)S(=O)(=O)c1ccccc1
-16% | -2% | Cc1cccc(C)c1NC(=O)NC1(C(=O)NCCCN2CCOCC2)CCCCC1
-2% | -2% | CCCn1c(=O)c2ccccc2n2c(SCc3nnc(-c4ccccc4Br)o3)nnc12
9% | -19% | CCOC(=O)N1CCN(C(=O)C2CCCN(S(=O)(=O)c3ccc(F)cc3)C2)CC1 (stereo not given)
3% | 3% | COc1ccc(CNC(=O)CCN2C(=O)c3ccccc3C2=O)cc1

# In another format: entries from further up
SMILES | N370S GC mod | GCN5L2 inh
Cc1ccc(/C=C/C(=O)c2c(C)nc3ccccn23)cc1 | 5% | ?
COc1ccc(CNC(=O)CCN2C(=O)c3ccccc3C2=O)cc1 | 3% | 3%
CC1CCC/C(=N\NC(=S)NCc2ccccc2)C1 (stereo not given) | 6% | 1%
CC(=O)Nc1cccc(NC(=O)c2cc(Cl)ccc2Cl)c1 | -7% | 0%
Cc1c(Cl)cccc1NC(=O)c1ncn[nH]1 | -1% | -6%

# (listing goes on)
N370S GC mod | GCN5L2 inh | canonical_smiles
· | -4% | Cc1ccc(Cn2c(=O)c3cccnc3n(Cc3ccc(C)cc3)c2=O)cc1
7% | 0% | O=C(Nc1ccccc1)Nc1cccc(Cl)c1Cl
? | -1% | CCOc1ccc(NC(=O)Nc2cc(C)on2)cc1
0% | -2% | CCOc1ccc(OCc2cccc(C(=O)N(CC)CC)c2)cc1
-4% | -4% | CS(=O)(=O)N(CC(=O)N1CCN(Cc2ccccc2)CC1)c1cccc(F)c1
-3% | 0% | O=C(NCCCN1CCCCC1)C1CCN(c2ncnc3c2nc2n3CCCCC2)CC1

# Individual results from above:
# For GCN5L2 inh, CS(=O)(=O)N(CC(=O)N1CCN(Cc2ccccc2)CC1)c1cccc(F)c1 is listed with -4%
# For GCN5L2 inh, Cc1ccc(Cn2c(=O)c3cccnc3n(Cc3ccc(C)cc3)c2=O)cc1 is listed with -4%
# For GCN5L2 inh, CCOc1ccc(NC(=O)Nc2cc(C)on2)cc1 is listed with -1%
# For N370S GC mod, O=C(NCCCN1CCCCC1)C1CCN(c2ncnc3c2nc2n3CCCCC2)CC1 is listed with -3%

# Screens deposited in PubChem BioAssay by National Center for Advancing Translational Sciences (NCATS).
